From PubChem BioAssay
AID504770: growth inhibition of E. coli YBA685, primary screen, V. cholerae RctB inhibitors. E. coli YBA685 rctB-dependent plasmid, OD600 growth, 3 h; stronger effect = lower value. z-score (no concentration beside the values). actives 0.27% (n = 130,000). AID 504770, 2011;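 active = z-score under -2 on both plates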;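 note: wells of about 30 µL received 100 nL stock; score is relative to mean and SD of the test wells; the first replicate is given; strong numbers were not always called active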
Ba CapD inh: Bacillus anthracis CapD inhibitors, primary screen, biochemical, fluorescence intensity | AID 492967, 2010 | purified CapD enzyme, fluorescence intensity read-out; stronger effect = lower value; some hits fall short of the stated cut | z-score (test concentration not listed) | CapD gamma-glutamyltranspeptidase (Bacillus anthracis Ames Ancestor) | actives 0.23% (n = 140,000);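 active = z-score under -4 in either of two replicates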;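 note: stock transfer was 100 nL into about 40 µL; score is relative to mean and spread of the plate; one replicate is shown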
Numbers without * were called inactive.

`O=C1C2CC=C(Cl)CC2C(=O)N1CCCCCCN1C(=O)C2CC=C(Cl)CC2C1=O` (configuration not stated) gave Ba CapD inh -0.4.
For O=C(CSc1nc2cc(Cl)ccc2c(=O)n1Cc1ccccc1)N1CCOCC1 the results were AID504770 0.35.
`CNC(=O)c1ccc(N2CCCS2(=O)=O)cc1` gave AID504770 -0.4 and Ba CapD inh 0.4.
`CN(C)S(=O)(=O)Oc1cccc(C(=O)Nc2ccc(F)cc2F)c1` gave Ba CapD inh 0.15.
Screening O=C(CSc1ncnc2c1oc1ccccc12)NCc1ccccc1 returned AID504770 2.3 and Ba CapD inh -0.2.
`Nc1ncc(Br)cc1S(=O)(=O)NCCC(=O)Nc1nccs1` gave AID504770 -0.35 and Ba CapD inh 5.
For CN(C)CCNC(=O)c1ccccc1 the results were AID504770 0.25.
For CCC(Cc1ccccc1)NC(=O)c1ccc2nc(-c3ccccc3NC(C)=O)c(=O)[nH]c2c1 (configuration not stated) the results were AID504770 0.05 and Ba CapD inh 1.
For Cc1c(C(=O)Nc2ccc(S(=O)(=O)N3CCCCC3C)cc2)oc2ccccc12 (configuration not stated) the results were AID504770 1 and Ba CapD inh 0.6.
For Cc1ccc(S(=O)(=O)c2nc(NCCN3CCOCC3)sc2Cl)cc1 the results were AID504770 -0.15 and Ba CapD inh 0.075.
COc1ccc2nc(NC(=O)CSc3nc4ccc([N+](=O)[O-])cc4[nH]3)sc2c1 was read as Ba CapD inh 0.03.
For CCOC(=O)c1c(C)[nH]c(C)c1S(=O)(=O)Nc1cc(C)cc(C)c1 the results were AID504770 0.9 and Ba CapD inh -0.085.
`CCCc1ccc(C(=O)N2c3ccccc3C(N(C(=O)c3ccc([N+](=O)[O-])cc3)c3ccccc3)CC2C)cc1` (configuration not stated) gave Ba CapD inh 0.12.
C=C1C(C(=O)Nc2nccs2)C1C(=O)Nc1nccs1 (configuration not stated) was read as AID504770 -0.15.
For Cc1oc(C(C)(C)C)cc1C(=O)NCc1csc2ccc(Cl)cc12 the results were AID504770 1.2 and Ba CapD inh -0.4.
CN(C)CCN(C(=O)C1CCCCC1)c1nc2ccc(Br)cc2s1 was read as AID504770 -0.85 and Ba CapD inh -0.075.
For COc1ccc(N2CCN(c3ncnc4sc(C(=O)N5CCN(c6ccccn6)CC5)c(C)c34)CC2)cc1 the results were Ba CapD inh -0.15.
`COc1cccc(C(=O)N2c3ccccc3CCc3ccccc32)c1` gave Ba CapD inh -0.33.
`Cc1cc(C)c2c(n1)SCC(=O)N2CC(=O)NCCCN1CCOCC1` gave AID504770 0.5 and Ba CapD inh -0.37.
`CCOC(=O)C1=C(C)Nc2nnnn2C1c1ccc(OC)c(OC)c1` (configuration not stated) gave Ba CapD inh -0.46.
Screening NS(=O)(=O)c1ccc(NC(=O)c2cn(-c3ccccc3)nc2-c2cccs2)cc1 returned AID504770 0.4.
For O=C(CSCc1ccc(F)cc1)N1CCN(c2ccccc2)CC1 the results were AID504770 -0.75 and Ba CapD inh -0.4.
Screening CC(C)c1cccc(C(C)C)c1OC(=O)NC(=O)c1c(F)cccc1F returned AID504770 -0.8 and Ba CapD inh -0.53.
O=C(c1ccccc1)N1CCN(C(=O)c2ccc(Cl)cc2Cl)CC1 was read as Ba CapD inh 3.1.
For O=C1/C(=C/c2cccc(O)c2)SC(=S)N1c1ccccc1O the results were AID504770 0.95 and Ba CapD inh 0.11.
`O=C(c1cc2ccccc2o1)N(C1CC1)C1(C(=O)Nc2ccccc2)CCCC1` gave AID504770 -0.4.
COc1ccc(S(=O)(=O)NC(CO)Cc2ccc(O)cc2)cc1 (configuration not stated) was read as Ba CapD inh -0.45.
Screening Cc1ccc(OC(=O)c2cc3ccccc3o2)cc1 returned AID504770 -0.8 and Ba CapD inh -0.23.
COc1c(C(=O)NC2CCN(Cc3cc(C)n(-c4ccccc4)c3C)C2)cnc2c1c(C)nn2C (configuration not stated) was read as Ba CapD inh -0.35.
For COc1ccc(-n2c(=S)[nH]c3cc(C(=O)N4CCN(c5ccccc5)CC4)ccc3c2=O)c(OC)c1 the results were Ba CapD inh -0.69.
`COc1ccccc1N1CCN(C(=O)c2ccc(/C=C3\Oc4ccccc4NC3=O)cc2)CC1` gave AID504770 1.1 and Ba CapD inh 1.8.
Screening CC1(C)SCNC1C(=O)O (configuration not stated) returned AID504770 0.35 and Ba CapD inh 0.81.
`CCc1cc(C(=O)Nc2sccc2C(N)=O)cs1` gave AID504770 -0.9 and Ba CapD inh 14.
`COC(=O)c1ccc(OCC#N)cc1` gave AID504770 0.15 and Ba CapD inh 0.68.
`COc1ccc(COn2c(-c3ccc(OC)cc3)nc3ccc(Cl)cc32)cc1` gave Ba CapD inh 0.21.
O=C(Nc1ccc(-c2cn3ccsc3n2)cc1)c1ccccc1 was read as AID504770 0.25.

Twelve entries already listed, ordered by length of the SMILES, low to high.
For CN(C)CCNC(=O)c1ccccc1 the results were AID504770 0.25.
`CNC(=O)c1ccc(N2CCCS2(=O)=O)cc1` gave AID504770 -0.4 and Ba CapD inh 0.4.
C=C1C(C(=O)Nc2nccs2)C1C(=O)Nc1nccs1 (configuration not stated) was read as AID504770 -0.15.
Screening O=C(CSc1ncnc2c1oc1ccccc12)NCc1ccccc1 returned AID504770 2.3 and Ba CapD inh -0.2.
O=C(Nc1ccc(-c2cn3ccsc3n2)cc1)c1ccccc1 was read as AID504770 0.25.
COc1ccc(S(=O)(=O)NC(CO)Cc2ccc(O)cc2)cc1 (configuration not stated) was read as Ba CapD inh -0.45.
`CCOC(=O)C1=C(C)Nc2nnnn2C1c1ccc(OC)c(OC)c1` (configuration not stated) gave Ba CapD inh -0.46.
O=C(c1ccccc1)N1CCN(C(=O)c2ccc(Cl)cc2Cl)CC1 was read as Ba CapD inh 3.1.
Screening CC(C)c1cccc(C(C)C)c1OC(=O)NC(=O)c1c(F)cccc1F returned AID504770 -0.8 and Ba CapD inh -0.53.
`O=C(c1cc2ccccc2o1)N(C1CC1)C1(C(=O)Nc2ccccc2)CCCC1` gave AID504770 -0.4.
For Cc1c(C(=O)Nc2ccc(S(=O)(=O)N3CCCCC3C)cc2)oc2ccccc12 (configuration not stated) the results were AID504770 1 and Ba CapD inh 0.6.
`COc1ccccc1N1CCN(C(=O)c2ccc(/C=C3\Oc4ccccc4NC3=O)cc2)CC1` gave AID504770 1.1 and Ba CapD inh 1.8.

Carrying on:
For CN(C)c1ccc(CNC(=O)c2ccc(CN(Cc3ccccc3)C(=O)Nc3ccccc3)o2)cc1 the results were AID504770 1.1 and Ba CapD inh 0.95.
COC(=O)c1ccccc1NC(=O)/C=C/c1ccc(-c2ccccc2)o1 was read as AID504770 0.15 and Ba CapD inh 1.5.
COc1ccc(CN(C(=O)c2cccc(Cl)c2)C2CCS(=O)(=O)C2)cc1OC (configuration not stated) was read as AID504770 -0.65 and Ba CapD inh 2.
`CC1CCN(C(=O)CN(C)S(=O)(=O)c2cccc3nsnc23)CC1` gave AID504770 2.2 and Ba CapD inh 0.18.
Screening COc1ccc(C(=O)OCc2ccccc2C(F)(F)F)c(O)c1 returned AID504770 -0.25.
For Cc1nnc(SCCn2c(N3CC(C)CC(C)C3)nc3c2c(=O)n(C)c(=O)n3C)s1 (configuration not stated) the results were Ba CapD inh 0.67.
Cc1cc(N=C(N)N=C(N)N)ccc1Br was read as Ba CapD inh -0.065.
For CC(=O)c1c(C)oc2ccc(N(C(=O)c3ccc(C)cc3)S(=O)(=O)c3ccccc3)cc12 the results were Ba CapD inh 0.01.
CCC(C)Nc1ncnc2c1oc1ccccc12 (configuration not stated) was read as AID504770 -0.2 and Ba CapD inh 1.8.
For COc1ccc(N2C(=O)C(N3C(=O)c4ccccc4C3=O)C2c2cc(OC)c(OC)c(OC)c2)c(OC)c1 (configuration not stated) the results were Ba CapD inh -0.2.
Cc1c(C#N)c(NC(=O)c2ccccc2Cl)n(Cc2ccccc2)c1C was read as Ba CapD inh -0.33.
`CN(C(=O)Nc1noc2c1COc1ccccc1-2)C1CCCCC1` gave AID504770 -0.55 and Ba CapD inh 0.3.
For O=C(Cc1nn[nH]n1)Nc1cc(Cl)cc(Cl)c1 the results were Ba CapD inh 0.24.
`COc1ccc(NC(=O)C2=Cc3cccc(OC)c3OC2)cc1` gave AID504770 0.65 and Ba CapD inh -0.6.
Cc1ccc(-c2nc3cnccn3c2NC2CCCCC2)o1 was read as AID504770 -0.7 and Ba CapD inh -1.
Screening COc1ccc(CN2CC(C(=O)NC3CCCCC3)CC2=O)cc1 (configuration not stated) returned AID504770 -0.85 and Ba CapD inh -0.78.
For COc1cc(C(=O)OC2CC3CCC(C2)N3C)ccc1O (configuration not stated) the results were Ba CapD inh -0.35.
`C=CCNC(=O)c1ccc(-c2ccccc2)cc1` gave AID504770 0.25.
Screening O=C(N/C(=C\c1ccco1)C(=O)N1CCCC1)c1ccccc1 returned AID504770 -0.05.
For C=CCSc1nnc(-c2c[nH]c3ccccc23)n1C the results were AID504770 2 and Ba CapD inh 0.03.
For COCCN1C(=O)C(=O)/C(=C(/O)c2ccccc2)C1c1ccccc1 (configuration not stated) the results were AID504770 -0.2.
For COC(=O)c1ccccc1NC(=O)c1cc2nc(-c3ccccc3)cc(C(F)(F)F)n2n1 the results were Ba CapD inh -0.29.
For CC(=O)Nc1ccc(N2CCOCC2)c(Cl)c1 the results were AID504770 -0.3.
Screening COc1ccc(CCCc2nnc(SCC(=O)NN)o2)cc1 returned AID504770 0.1 and Ba CapD inh -1.1.
Screening O=C1Nc2ccccc2/C1=C/C(=O)c1ccccc1 returned AID504770 -0.7 and Ba CapD inh -0.84.
`Cc1ccccc1Cn1nc(-c2ccco2)ccc1=O` gave AID504770 1.5.
`C#CCn1c(=NC(=O)CSCC(=O)N2CCCC2)sc2ccccc21` gave AID504770 -0.4.
`N#CC(c1cccnc1)N1CCOCC1` (configuration not stated) gave AID504770 0.25 and Ba CapD inh -0.62.
CCOC(=O)c1ccc(N2CCOCC2)c(NS(=O)(=O)c2ccc(F)cc2)c1 was read as Ba CapD inh -0.16.
For COc1ccc(CNC(=O)CN(C)Cc2ccccc2F)cc1OC the results were AID504770 -0.45.
Screening O=C(Cn1cnc2c(nnn2Cc2ccc(Cl)cc2)c1=O)NCc1ccc2c(c1)OCO2 returned AID504770 -0.75.
Screening O=C(NNC(=O)c1ccccc1O)OCc1c(F)cccc1Cl returned Ba CapD inh 4.9.
`CC(C)CC(NC(=O)c1ccco1)C(=O)O` (configuration not stated) gave AID504770 0.1.
COC(=O)CC1C=CS(=O)(=O)C1 (configuration not stated) was read as AID504770 -0.35 and Ba CapD inh 0.015.
O=C(Cc1c[nH]c2ccccc12)N/N=C/c1cccc(Oc2ccc(Cl)c(Cl)c2)c1 was read as Ba CapD inh -0.58.
`COc1cccc(NC2=NC3(CCCC3)N=C(N)N2)c1` gave AID504770 -1.1 and Ba CapD inh -0.61.
COc1ccc(C(=O)COC(=O)CCn2c(C)csc2=O)c(OC)c1 was read as AID504770 -0.5.
Screening CCN(CC)S(=O)(=O)c1ccc(NC(=O)CSc2nncn2-c2ccccc2)cc1 returned AID504770 -1.1.
Screening CC(=O)Nc1ccc2c(c1)sc(=NC(=O)c1ccc(Br)s1)n2C returned AID504770 3.6 and Ba CapD inh -0.015.
For O=C(CSC1CC(=O)N(c2ccccc2)C1=O)Nc1ccc(F)cc1 (configuration not stated) the results were AID504770 0.5.
COc1cc(-c2cc(C(F)(F)F)n3ncc(C(=O)Nc4cccnc4Cl)c3n2)cc(OC)c1OC was read as Ba CapD inh 0.09.
COc1ccc2[nH]c3nc(SCC(=O)NC(C)(C)C)nnc3c2c1 was read as AID504770 -0.65.
`Cc1c(Cl)cccc1NC(=S)N1CCCN(c2nc3ccc(Cl)cc3s2)CC1` gave AID504770 -0.7 and Ba CapD inh 0.12.
`COc1cc(CC(=O)NC2CCC(C)CC2)cc(OC)c1OC` (configuration not stated) gave AID504770 2.
O=C(CN1CSCC1=O)Nc1cc(C(F)(F)F)ccc1NC1CCCCC1 was read as AID504770 1.4.
Screening C/C(=N\NC(=O)CNc1ccccc1)c1ccccc1 returned AID504770 0.45.
`Cc1c(N)cc(N)cc1C(=O)O` gave AID504770 -0.75 and Ba CapD inh 1.4.
CCOC(=O)c1c(NC(=O)CCN2C(=O)c3cccc([N+](=O)[O-])c3C2=O)sc(C(C)=O)c1C was read as Ba CapD inh -0.11.
O=C(O)CCS(=O)(=O)c1ccc2ccccc2c1 was read as AID504770 -0.25 and Ba CapD inh 1.3.
For CC(C)(C)C(=O)/C=C1\NC(=O)CS1 the results were AID504770 -1.1 and Ba CapD inh -3.1.
Screening O=C1CC(Sc2ccccc2C(=O)O)C(=O)N1 (configuration not stated) returned AID504770 -0.7 and Ba CapD inh 0.14.
Screening CCc1cccc(Nc2ncnc3c2nc2n3CCCCC2)c1 returned AID504770 0.3 and Ba CapD inh 0.86.
CCCOc1ccc(C(=O)CCN(C)C)cc1 was read as AID504770 -0.85 and Ba CapD inh -0.51.
For C=CCn1c(SCc2cn3ccccc3n2)nnc1-c1cccc(S(=O)(=O)N(CC)CC)c1 the results were AID504770 -0.65.
`COCc1cc(C)nc(SCC(=O)N2CCCCC2)c1C#N` gave AID504770 -0.75 and Ba CapD inh 0.76.
Screening CC(C)(C)C(=O)NCc1cn2ccsc2n1 returned AID504770 -0.65 and Ba CapD inh 10.
COC(=O)c1ccc(S(=O)(=O)N2CCC(O)CC2)n1C was read as AID504770 -0.15 and Ba CapD inh 1.3.
For CC(=O)Nc1ccc2c(c1)C1C=CCC1C(C(=O)O)N2 (configuration not stated) the results were AID504770 1.4.
Cn1nc(C(F)(F)F)c(CO)c1S(=O)(=O)c1ccc(Br)cc1 was read as Ba CapD inh -0.39.
Screening CCOc1ccc(C2C(C(=O)OC)=CN(CC(C)C)C=C2C(=O)OC)cc1OC returned AID504770 0.65 and Ba CapD inh 112.
CSc1nnc([C@H](C)NC(=O)OC(C)(C)C)o1 was read as AID504770 -0.35.

Hits appear at their usual frequency; 0.37% or so of the library scored in one or more.
